# High-throughput results as filed in PubChem BioAssay.
# PKD1 inh – inhibitors of human PKD1 kinase | Q15139 | PKD1 kinase fluorescence polarization assay | inhibition, %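 (about 10 µM by stock and volumes)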 | actives 0.056% (n = 200,000) | AID 797;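 active = inhibition of 50% or more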;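 note: controls were vehicle for no effect and a reference inhibitor for full effect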
# GALR2 ag – activates the human galanin receptor 2; O43603; AID 803; GALR2-expressing cells, agonist activation read-out; actives 0.48% (n = 140,000); activation, %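 (tested at 5 µM)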;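 active = above mean plus 3 SD of all compounds, about 5% in these data, not always enough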;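 note: 0% = vehicle buffer wells and 100% = reference agonist at full effect; tested in CHO reporter cells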
# Target sequence (O43603 whole entry, looked up): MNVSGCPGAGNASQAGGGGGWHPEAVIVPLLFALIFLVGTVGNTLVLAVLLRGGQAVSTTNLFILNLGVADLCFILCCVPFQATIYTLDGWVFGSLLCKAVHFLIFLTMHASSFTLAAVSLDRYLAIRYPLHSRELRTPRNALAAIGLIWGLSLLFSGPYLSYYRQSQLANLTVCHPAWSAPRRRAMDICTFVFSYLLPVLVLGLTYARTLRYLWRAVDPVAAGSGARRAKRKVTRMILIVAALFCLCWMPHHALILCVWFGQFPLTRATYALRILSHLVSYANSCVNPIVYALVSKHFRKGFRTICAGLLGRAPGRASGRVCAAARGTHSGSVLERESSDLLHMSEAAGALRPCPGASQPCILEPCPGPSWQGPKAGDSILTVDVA
# INS promoter inh – TRM-6 insulin promoter activity inhibition; TRM-6 cells (human fetal islet line), insulin promoter-eGFP reporter, imaging; reporter expression induced with tamoxifen; inhibition, % at 2 µM; actives 0.9% (n = 130,000); AID 1273;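 active = inhibition above the mean plus 3 SD, with well images judged a real hit on visual review, cut at about 60% in these data, passing the limit was not always enough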
# HSV replic up – increases HSV replication in cells | HSV replication augmentation in cells, fold increase | maximum fold increase | actives 0.005% (n = 220,000);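 active = peak rise of 1.5-fold or more in the series; tested in PC3 cells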;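 note: first round at 10 µM; read as green reporter fluorescence; hits show the peak of a series up to 25 µM; 1 = signal of infected wells without compound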
# RGS16-Gao HTS – RGS16-Galphao interaction regulator (human); O15492+P09471; bead-based flow cytometry RGS16-Galphao binding, fluorescence; actives lie on both sides; binding response (% of control), % at 10 µM; actives 0.38% (n = 220,000); AID 1441;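 active = below 25% or above 175%, edge rows of some plates excepted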;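 note: Galphao activated by GDP with aluminum fluoride before binding; 100% = wells without compound and 0% = beads without RGS; some results beyond the cut were filed as inactive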
# Target sequence (O15492 whole entry, looked up): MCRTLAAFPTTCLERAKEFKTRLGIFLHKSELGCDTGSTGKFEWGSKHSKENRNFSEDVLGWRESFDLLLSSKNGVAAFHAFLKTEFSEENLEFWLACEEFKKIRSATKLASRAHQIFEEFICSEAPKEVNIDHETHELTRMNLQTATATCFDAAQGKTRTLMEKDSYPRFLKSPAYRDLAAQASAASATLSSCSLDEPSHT
# Target sequence (P09471 whole entry, looked up): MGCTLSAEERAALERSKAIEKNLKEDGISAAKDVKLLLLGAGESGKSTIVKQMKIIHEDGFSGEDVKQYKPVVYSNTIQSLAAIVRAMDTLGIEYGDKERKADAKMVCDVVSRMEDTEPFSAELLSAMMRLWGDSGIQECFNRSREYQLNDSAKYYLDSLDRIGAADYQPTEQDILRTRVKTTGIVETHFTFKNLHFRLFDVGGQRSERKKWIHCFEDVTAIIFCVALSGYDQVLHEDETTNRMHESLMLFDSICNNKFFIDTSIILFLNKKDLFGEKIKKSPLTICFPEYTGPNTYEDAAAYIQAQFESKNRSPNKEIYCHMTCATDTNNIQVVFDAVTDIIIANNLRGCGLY
# INS promoter inh cell count – recorded beside INS promoter inh, whose call it bears; normalized cell count, %; measured here: cell count, toxicity; reference of the scale not given here;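 cells exposed to compound for 48 h; stained nuclei by imaging scaled within each plate; lower means fewer cells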
# HSV replic up primary fold – recorded beside HSV replic up, whose call it bears; fold increase; compound at 10 µM; measured here: primary screen fold increase 10 uM; tested in PC3 cells;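 GFP signal in the first replicate; 1 = infected wells without compound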
# Starred values were filed as active, the others as inactive; i = inactive; . = not tested or not shown; & = joins results of further samples.
SMILES,PKD1 inh,GALR2 ag,INS promoter inh,INS promoter inh cell count,HSV replic up,HSV replic up primary fold,RGS16-Gao HTS
CCOc1ccccc1CNS(=O)(=O)c1ccc2[nH]c(=O)sc2c1,-12,-1.1,.,.,i,1,101
Cc1ccccc1-n1c(SCc2csc(Nc3ccccc3)n2)nnc1-c1cccnc1,-5,-0.2,.,.,i,1,104
CCc1ccc(NC(=O)c2cnc(N3CCN(c4ccccn4)CC3)c3ccccc23)cc1,-3,.,24,71,i,0.78,107
O=C1OC(C(=O)NCc2ccccc2)Cc2ccccc21 (configuration not stated),5,.,.,.,i,1.4,100
CCc1ccc2oc(=O)cc(CN3CCN(c4ccc(F)cc4)CC3)c2c1,-13,0.8,40,56,i,0.95,103
Cc1c(C(=O)Oc2cccc3ccccc23)cnn1-c1ccccc1,-5,-3.1,1,216,i,0.86,81
CC(C)(C)OC(=O)N/N=C\C=C\c1ccc2c(c1)OCO2,3,1.0,.,.,i,1.1,37
Cn1c(=O)[nH]c(=O)c2c1nc(N1CCCCCC1)n2CCN1CCCCCC1,-10,2.5,-26,122,i,0.99,101
C=CCn1c(C(C)NC(=O)C(C)(C)C)nc2ccccc21 (configuration not stated),-9,-3.3,27,110,i,0.92,105
Cn1c(N)c(S(=O)(=O)N2CCN(Cc3ccccc3)CC2)c(=O)n(C)c1=O,-4,.,33,77,i,1.2,115
CCOc1ccc(-n2c(Cc3ccccc3)nnc2SCc2c(C)noc2C)cc1,-10,-0.5,17,77,i,0.98,71
CCn1c2ccccc2c2cc(NC(=O)CSc3nnnn3-c3ccccc3)ccc21,-7,-0.8,9,102,i,0.99,.
CC1=CC2=NC(=O)/C(=C\c3cn(C)c4ccccc34)C(=N)N2O1,3,.,.,.,i,0.91,98
Cc1ccc(NC(=O)CSCc2n[nH]c(=O)[nH]2)c(Br)c1,-4,.,.,.,i,0.76,107
O=C(Nc1ccccc1)Nc1nnc(COc2ccccc2F)s1,.,.,.,.,i,0.98,102
COc1ccccc1NC(=S)NC(C)C(c1cccs1)N1CCOCC1 (configuration not stated),.,.,.,.,i,1.1,104
CCOCCn1c(C(C)C)nc2ccccc21,-1,-1.9,28,175,i,0.7,94
COc1ccc(C2N(c3ccc(Cl)cc3)C(=O)C3CCCN32)cc1 (configuration not stated),-1,-2.4,.,.,i,1,102
CN(C)S(=O)(=O)c1ccc(N2CCCC2)c(C(=O)NCC2CCCCC2)c1,-7,.,.,.,i,0.92,101
CN(C)c1ccnc2sc(C(=O)NCc3ccccc3)c(N)c12,-6,-0.9,20,137,i,1.1,78
O=C(NC1CCCc2ccccc21)C1CCN(S(=O)(=O)c2cccc(C(F)(F)F)c2)CC1 (configuration not stated),-4,-0.8,-63,46,i,0.96,240
O=C(CSc1nnc(SCc2ccc(Cl)cc2)s1)N/N=C/c1ccc(C(=O)O)cc1,.,.,.,.,i,1,104
COc1ccc(C(CNC(=O)COc2ccc(-c3ccccc3)cc2)N2CCOCC2)cc1 (configuration not stated),.,.,.,.,i,0.92,100
c1ccc(-c2cc(-c3nn4c(-c5ccco5)nnc4s3)c3ccccc3n2)cc1,-6,-0.9,-67,148,i,0.74,93
CSc1cccc(NC(=O)CN(c2ccccc2)S(=O)(=O)N(C)C)c1,-6,-3.5,34,66,i,0.91,90
O=C(CN1C(=O)COc2ccccc21)NCCC1=CCCCC1,-4,-0.4,12,136,i,0.82,105
Cc1sc2c(=O)n3c(nc2c1C(=O)NC1CCCCC1)CCCCC3,8,-0.3,-10,53,i,0.81,41
Cc1ccccc1Nc1nnc(SCc2cc([N+](=O)[O-])cc3c2OCOC3)s1,1,-3.5,.,.,i,1,102
Cc1cccc(C(=O)OCC(=O)Nc2sc3c(c2C#N)CCC3)c1,-4,-0.3,28,128,i,1,97
c1ccc(-c2nc(N3CCN(c4ccccc4)CC3)nc(-n3ccnc3)n2)cc1,7,-0.7,.,.,i,0.98,27
CCCCOc1ccc(C(=O)NN2CCN(C)CC2)cc1,-4,0.1,0,149,i,0.96,100
COc1cc(-c2nnc(SCC(=O)N3c4ccccc4Sc4ccccc43)o2)cc(OC)c1OC,0,-0.3,.,.,i,0.85,94
O=C1CN(C(=O)CSc2nnc(Nc3ccccc3)s2)c2ccccc2N1,-6,-0.2,52,91,i,1.1,77
CC(C)CNc1nc(=S)nc(N(C)C)[nH]1,-13,-0.9,.,.,i,0.89,103
Cc1cc(=O)oc2cc(OCCCN3C(=O)c4ccccc4C3=O)ccc12,-11,-0.4,.,.,i,0.95,93
O=S(=O)(c1ccccc1)N1CCN(CC2CC3C=CC2C3)CC1 (configuration not stated),7,.,32,82,i,1,100
CC1(C)N([O-])C(c2cccs2)=C[N+]1=O,6,-0.2,-38,140,i,0.91,156
CCN(CC)CCOc1c(C)cccc1Cl,-1,.,27,136,i,0.91,115
COc1ccc(-n2nnnc2SCC(=O)NC(=O)Nc2ccc3c(c2)OCCO3)cc1,-4,-2.7,-12,209,i,0.93,102
CC(C)C(C)NC(=O)COc1ncnc2ccccc12 (configuration not stated),3,-1.5,.,.,i,0.88,102

# Random excerpt: five records from the list.
SMILES,PKD1 inh,GALR2 ag,INS promoter inh,INS promoter inh cell count,HSV replic up,HSV replic up primary fold,RGS16-Gao HTS
Cc1cc(=O)oc2cc(OCCCN3C(=O)c4ccccc4C3=O)ccc12,-11,-0.4,.,.,i,0.95,93
CC(C)C(C)NC(=O)COc1ncnc2ccccc12 (configuration not stated),3,-1.5,.,.,i,0.88,102
O=C(CSc1nnc(SCc2ccc(Cl)cc2)s1)N/N=C/c1ccc(C(=O)O)cc1,.,.,.,.,i,1,104
CSc1cccc(NC(=O)CN(c2ccccc2)S(=O)(=O)N(C)C)c1,-6,-3.5,34,66,i,0.91,90
c1ccc(-c2cc(-c3nn4c(-c5ccco5)nnc4s3)c3ccccc3n2)cc1,-6,-0.9,-67,148,i,0.74,93

# (continued)
SMILES,PKD1 inh,GALR2 ag,INS promoter inh,INS promoter inh cell count,HSV replic up,HSV replic up primary fold,RGS16-Gao HTS
CC(NC(=O)C(=O)NN=C1CCCCCCCCCCC1)c1ccccc1 (configuration not stated),-6,-0.5,.,.,i,0.89,100
O=C(Nc1ccc(-n2cccc2)cc1)C1CC1,-4,.,0,130,i,0.91,99
CN(CC1CCOCC1)C(=O)CC1C(=O)NCCN1Cc1ccc(-c2ccccc2)cc1 (configuration not stated),5,.,.,.,i,1.1,98
N#C/C(=C\c1c(Cl)cccc1Cl)c1nc2ccccc2o1,13,-1.2,-2,99,i,0.98,104
O=[N+]([O-])c1ccc(NCCNCCOc2nonc2-c2ccccc2)c([N+](=O)[O-])c1,-7,.,-6,74,i,1,109
CCCCSc1nc(C)c(CC(=O)O)c(=O)[nH]1,2,-0.5,.,.,i,0.9,101
COc1ccccc1NC(=S)N1CCN(Cc2ccccc2)CC1,-12,-2.0,42,88,i,0.94,181
CC(C)(C)c1ccc(NNC(=O)C2CCC2)cc1,.,.,.,.,i,1,101
COC(=O)c1cnn2c(C(F)(F)F)cc(-c3ccco3)nc12,-13,-0.6,-67,94,i,1.1,97
CCN(CC)CCCNC(=S)N(Cc1cccnc1)Cc1cc2cccc(C)c2[nH]c1=O,1,.,.,.,i,1.1,90
COc1ccc([C@@H]2C[C@@H](c3ccccc3)Oc3cc(OC)cc(OC)c32)cc1,.,.,.,.,i,1.1,102
Cc1cc(NC(=O)CCC(=O)N(Cc2cccs2)C(C(=O)NC2CCCC2)c2ccccc2)no1 (configuration not stated),3,-2.7,-95,114,i,1,100
Cc1cc(C)nc(N2CCCC(C(=O)NCc3ccc4c(c3)OCO4)C2)n1 (configuration not stated),3,.,28,131,i,1,103
O=C1CCCN1CCCNS(=O)(=O)c1cccc(F)c1,1,.,.,.,i,0.96,100
Cc1[nH]nc(N)c1-c1ccc(Cl)cc1,-2,.,.,.,i,1,73
COc1ccc(OC(C)C(=O)Nc2ccc(F)cc2F)cc1 (configuration not stated),-4,.,-33,81,i,0.98,99
CCC(C)(C)n1nnnc1C(c1ccc2ncccc2c1)N1CCN(Cc2ccc3c(c2)OCO3)CC1 (configuration not stated),-9,-0.5,.,.,i,0.97,108
O=S(=O)(Nc1ccc(-c2csc(-c3ccccc3)n2)cc1)c1ccc(F)cc1,5,-2.5,7,142,i,0.96,105
CCOc1ccc(NC(=O)CSC2=C(C#N)C(c3ccc4c(c3)OCO4)CC(=O)N2)cc1 (configuration not stated),2,0.3,.,.,.,.,82
N#CCC1c2ccccc2CCN1C(=O)Nc1cccc(C(F)(F)F)c1 (configuration not stated),-2,-0.2,24,69,i,1.1,100

# Some of the entries so far, as labelled records.
O=C1CCCN1CCCNS(=O)(=O)c1cccc(F)c1
  PKD1 inh = 1; GALR2 ag = .; INS promoter inh = .; INS promoter inh cell count = .; HSV replic up = i; HSV replic up primary fold = 0.96; RGS16-Gao HTS = 100

COC(=O)c1cnn2c(C(F)(F)F)cc(-c3ccco3)nc12
  PKD1 inh = -13; GALR2 ag = -0.6; INS promoter inh = -67; INS promoter inh cell count = 94; HSV replic up = i; HSV replic up primary fold = 1.1; RGS16-Gao HTS = 97

# Next part:
SMILES,PKD1 inh,GALR2 ag,INS promoter inh,INS promoter inh cell count,HSV replic up,HSV replic up primary fold,RGS16-Gao HTS
CC(C)(C)NS(=O)(=O)c1ccc(CCC(=O)NCc2ccc3c(c2)OCO3)cc1,1,-2.5,-24,98,i,1.1,92
CC(=C\C(=O)O)/C(=C/c1ccccc1)C(=O)O,17,-2.1,24,103,i,0.72,103
CN(C)c1ccnc2c[cH-]cc12.[Fe].c1ccc(-[c-]2[c-](-c3ccccc3)[c-](-c3ccccc3)[c-](-c3ccccc3)[c-]2-c2ccccc2)cc1 (configuration not stated),.,.,.,.,i,0.99&1,94&101
COc1cc(NC(=S)Nc2cccnc2)cc(OC)c1OC,11,-2.5,.,.,i,0.99,102
CCOC(=O)CN1NC2(CCCC(C)C2)NC1=S (configuration not stated),3,-1.0,-41,67,i,0.97,112
CC(=O)Nc1ccc(Nc2ncc([N+](=O)[O-])c(Nc3ccc(NC(C)=O)cc3)n2)cc1,-7,-2.5,.,.,.,.,91
COc1ccc(-c2nnc(SCC(=O)NC(C)C)n2CC2CCCO2)cc1OC (configuration not stated),0,-1.3,.,.,i,1,100
O=S(=O)(N1CCOCC1)n1c(Cc2ccccc2)nc2ccccc21,-5,0.5,70*,11*,i,0.95,86
CC(C)[C@H](CO)N(Cc1cccc(F)c1)c1nc(Nc2cccc(Cl)c2)c2ncn(C(C)C)c2n1,.,.,.,.,i,0.89,108
COc1ccc(Cl)cc1NC(=S)NCc1ccc(S(N)(=O)=O)cc1,5,0.8,-16,93,i,0.96,84
COc1cc(-n2c(C)nc3cc(C(=O)NCCN4CCOCC4)ccc32)cc(OC)c1OC,-19,-1.2,-7,82,i,1,103
O=C(Nc1ncc(Cc2ccc(Cl)cc2Cl)s1)c1ccc([N+](=O)[O-])cc1,4,0.8,-26,129,i,0.82,107
Cc1ccc(S(=O)(=O)N(C)C)cc1NC(=S)NC(=O)C12CC3CC(CC(C3)C1)C2,-8,-1.3,-388,116,i,0.92,104
Cc1cccc(NC(=S)NCCSc2ccc(Cl)cc2)c1,8,.,-7,84,i,0.92,60
CC(Sc1nnc2ccccn12)C(=O)Nc1ccc2c(c1)OCO2 (configuration not stated),-8,.,.,.,i,0.98,95
CCCOc1cccc(C(=O)O)c1,-12,-0.9,.,.,i,0.89,80
Fc1ccc(/C=N/N2CCOCC2)c(F)c1,-4,.,.,.,i,0.93,98
Cn1c(=N)c(S(=O)(=O)c2ccccc2)cc2c(=O)n3ccccc3nc21,-9,2.6,1,72,i,0.77,106
COc1ccc(C2C3=C(CC(C)(C)CC3=O)Nc3c2c(=O)[nH]c2nc(C)nn32)cc1 (configuration not stated),-4,-2.0,27,107,i,0.88,94
Cn1c2c(c(=O)[nH]c1=O)C(c1ccc(O)cc1)C1=C(N2)c2ccccc2C1=O (configuration not stated),-7,.,57,63,i,0.9,83

# An excerpt from above in order of the RGS16-Gao HTS value, smallest number first.
Molecule | PKD1 inh | GALR2 ag | HSV replic up | HSV replic up primary fold | RGS16-Gao HTS
Cc1cc(=O)oc2cc(OCCCN3C(=O)c4ccccc4C3=O)ccc12 | -11 | -0.4 | i | 0.95 | 93
CC(Sc1nnc2ccccn12)C(=O)Nc1ccc2c(c1)OCO2 (configuration not stated) | -8 | . | i | 0.98 | 95
CCCCSc1nc(C)c(CC(=O)O)c(=O)[nH]1 | 2 | -0.5 | i | 0.9 | 101
